High-throughput results (PubChem BioAssay)
CapD inh – Bacillus anthracis CapD inhibitors, primary screen, biochemical, fluorescence intensity. z-score (no concentration beside the values). CapD gamma-glutamyltranspeptidase (Bacillus anthracis Ames Ancestor). purified CapD enzyme, fluorescence intensity read-out; active compounds read low; some hits fall short of the stated cut. hit rate 0.23% among 140,000. AID 492967, 2010;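 active means z-score under -4 in either of two replicates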;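 further: stock transfer was 100 nL into about 40 µL; score is relative to mean and spread of the plate; one replicate is shown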
AID504770 – growth inhibition of E. coli YBA685, primary screen, V. cholerae RctB inhibitors; E. coli YBA685 rctB-dependent plasmid, OD600 growth, 3 h; active compounds read low; hit rate 0.27% among 130,000; z-score (test concentration not listed);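 active means z-score under -2 on both plates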;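 further: wells of about 30 µL received 100 nL stock; score is relative to mean and SD of the test wells; the first replicate is given; strong numbers were not always called active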
Active calls of the source: *; / = not tested or not shown; & = joins results of further samples. Some of the compounds tested. The share of hits here may be higher or lower than overall.

nr	SMILES	CapD inh	AID504770
1	CC(C)C(NS(=O)(=O)c1ccc2c(c1)oc(=O)n2C)C(=O)N1CCN(c2ccc(Cl)cc2)CC1 (stereo not drawn)	0.71	1
2	CC(C)CCNC(=O)C1CCN(S(=O)(=O)c2ccc3nc4c(c(C(=O)O)c3c2)CCCCC4)CC1	-0.015	-0.25
3	O=C(Nc1ccc(S(=O)(=O)N2CCCC2)cc1)c1ccco1	0.92	-0.75
4	COc1ccc(-c2ccc3c(N)c(C(=O)Nc4cccc(C(F)(F)F)c4)sc3n2)cc1OC	-0.24	1.9
5	O=C(O)c1ccccc1C(=O)NCc1ccc2c(c1)OCO2	0.85	0.25
6	O=C(NCCc1nc2ccccc2[nH]1)c1ccccc1	1.9	-1.2
7	O=C1OC(c2ccccc2)OC(=O)C1=Cc1ccc(-c2cccc(Br)c2)o1 (stereo not drawn)	-0.8	1.2
8	CC1Cc2ccccc2N1C(=O)CSc1nnc(COc2ccccc2Cl)o1 (stereo not drawn)	/	-0.65
9	C/C=C/C=N/Nc1nnc2c(n1)[nH]c1ccccc12	-0.12	1.4
10	Cc1ccc(-c2cc3ccccc3nc2Cl)cc1	2.6	/
11	COc1ccccc1-c1nnc(SC)n1-c1ccccc1	0.31	-0.5
12	C=CCNC(C(=O)Nc1cccc(OC)c1)c1ccccc1 (stereo not drawn)	/	-0.9
13	CCCOc1ccc2c(c1)C(=O)c1cc(OCC(=O)O)ccc1-2	-0.34	-0.15
14	Cc1ccc(-c2nc3ccccc3s2)cc1S(=O)(=O)N1CCCC1	2.2	-0.55
15	CN(C1CCS(=O)(=O)C1)S(=O)(=O)c1cccc2nsnc12 (stereo not drawn)	-0.18	1.3
16	Cc1c(Cl)c(=O)oc2cc(OCC(=O)N3CCCC(C)C3)ccc12 (stereo not drawn)	/	-0.1
17	O=C(c1ccc2c(c1)OCO2)c1cn(Cc2ccc(F)cc2)c2cc3c(cc2c1=O)OCO3	-1.1	0.35
18	NC(=O)C1CCCN(C(=O)CCC(=O)c2cccs2)C1 (stereo not drawn)	/	-0.05
19	CC1=C(C(=O)OCCc2ccccc2)C(c2ccc(OCc3ccccc3)cc2)NC(=O)N1 (stereo not drawn)	0.22	/
20	O=C1NC2(CCCCC2)Oc2ccccc21	0.46	1.1
21	Cc1ccc(-c2n[nH]c(CNC(=O)c3ccc(F)c(F)c3)n2)cc1	/	-0.65
22	Cc1ccc(CN(C)c2ccc(S(=O)(=O)N3CCCC3)cn2)cc1	/	-0.2
23	Nc1nnc(SCC(=O)n2c3ccccc3c3ccccc32)s1	-0.67	-0.8
24	Cc1ccc(NC(=O)CC2SC(=Nc3ccc(S(N)(=O)=O)cc3)NC2=O)cc1 (stereo not drawn)	0.41	-0.15
25	COC(=O)c1ccc(C=Nc2c(C)n(C)n(-c3ccccc3)c2=O)cc1	-0.02	/
26	CC(C)(C)NC(=O)N1CCC(Nc2nccc(C(F)(F)F)n2)CC1	12	0.7
27	CCNS(=O)(=O)c1ccc(NC(=O)c2ccccc2OCC)cc1	0.7	0.4
28	CC(C)C1/C(=N/O)CC(c2ccccc2)NC1c1ccccc1 (stereo not drawn)	-0.42	0.3
29	COc1ccc(N2C(=O)NC(=O)/C(=C/c3cc(C)n(-c4ccccc4)c3C)C2=O)cc1	0.5	/
30	O=c1[nH]c2ccccc2nc1C(F)(F)F	11&11	-1.7
31	CC(C)(C)N1C(=O)NC(=O)/C(=C\c2ccco2)C1=O	0.015	-0.25
32	CNc1nc(Nc2ccc([N+](=O)[O-])cc2)nc(OCC(F)(F)C(F)F)n1	-0.08	/
33	COc1cccc(C=Nc2cccc(NC(=O)c3ccc(F)cc3)c2)c1O	-0.34	1.6
34	N#Cc1ccc(/C=N/n2cnc3sc4c(c3c2=O)CCC4)cc1	/	-1.5
35	Cc1cc(C(C)(C)C)cc(C(C)(C)C)c1NC(=O)/C=C/C(=O)O	-0.02	-0.35
36	Cc1cccc2c(C(=O)NC(C)(C)C)cc(-c3ccccc3)nc12	1.4	0.25
37	CCS(=O)(=O)N1CCCC(C(=O)NCc2cccc(OC)c2)C1 (stereo not drawn)	0.21	0.4
38	O=C(Nc1nc2ccccc2n1CCOc1ccccc1)c1ccc(F)cc1	13	/
39	Nc1cc(=O)[nH]c(=O)n1-c1cccc(Cl)c1	1.1	-0.4
40	N#Cc1ccc(-c2cccc(C(F)(F)F)c2)nc1Cl	-0.2	-0.25
41	CSc1nc2ccccc2c(=O)n1-c1ccccc1C	/	-0.5
42	NS(=O)(=O)c1ccc(CNc2ccc3ccccc3n2)cc1	/	-0.55
43	Nc1c(Nc2cccc(C(=O)O)c2)c2ccccc2oc1=O	-1.6	-0.1
44	CCNC1CC(=O)N(c2ccc(C(=O)OCC)cc2)C1=O (stereo not drawn)	/	1.4
45	CCN1CCN(C(c2cccs2)C(C)NC(=O)c2ccco2)CC1 (stereo not drawn)	-0.42	2.1
46	Cc1ccc(S(=O)(=O)NC(=O)N(C2CC2)C2CCN(Cc3ccccc3)CC2)cc1	-0.5	/
47	O=C(CCC(=O)c1cccs1)NCc1ccccc1	/	2.9
48	CCOC(=O)CSC1=C(C#N)C(c2cccc(Cl)c2Cl)C2=C(CCCC2=O)N1 (stereo not drawn)	3.9	-0.75
49	CC(C)(C)OC(=O)NC1CCN(C(=O)CC(c2ccccc2)(c2ccccc2)c2ccccc2)C1 (stereo not drawn)	-0.41	/
50	CCCn1c(SCC(=O)c2ccc3c(c2)OCCO3)nnc1-c1ccco1	/	-3.8*
51	O=C(C1CCCN(S(=O)(=O)c2cccc3nonc23)C1)N1CCN(c2ccc(F)cc2)CC1 (stereo not drawn)	0.63	-0.3
52	Cc1cc2nccc(-c3cccnc3)n2n1	-1.7	2.7
53	N[C@@H]1[C@@H](O)[C@H](O)[C@@H](CO)O[C@H]1O	-0.23	-0.2
54	NS(=O)(=O)c1ccc(CCN2C(=O)CCC2=O)cc1	/	0.05
55	O=C(O)C1C2c3ccccc3C(c3ccccc32)C1C(=O)O (stereo not drawn)	0.4	/
56	O=C(N/N=C/c1ccc(Cl)cc1)c1cc2c(s1)-c1ccccc1CC2	3.7	/
57	O=C1C2(CC2c2ccccc2)CN(Cc2ccccc2)CC12CC2c1ccccc1 (stereo not drawn)	0.42	/
58	CCNc1nc(C(=O)O)nc(N2CCOCC2)n1	0	-0.65
59	Cc1ccc2cc(NC(=O)CC(CC(=O)O)c3ccccc3)ccc2n1 (stereo not drawn)	8.1	0.15
60	CC1CN(c2ccc(C(F)(F)F)cn2)CC(C)O1 (stereo not drawn)	8.1	-0.3

Following part
nr	SMILES	CapD inh	AID504770
61	CC(=O)Nc1ccc(OCC(O)CN2C(C)CCCC2C)cc1 (stereo not drawn)	0.18	-1.4
62	CCOC(=O)C1=C(O)/C(=C/c2ccc(F)cc2)SC1=Nc1ccccc1	0.17	/
63	COC(=O)CN1C(=O)C2(OCCCO2)c2cc(C)ccc21	-0.06	/
64	c1ccc(-c2ccc(-c3nc(-c4c5ccccc5cc5ccccc45)[nH]c3-c3ccc(-c4ccccc4)cc3)cc2)cc1	-0.47	/
65	COc1ccc(OCC(NC(=O)Cn2nc(C)c3ccccc3c2=O)C(C)C)cc1 (stereo not drawn)	0.18	-2
66	CCn1c(O)c(N=O)n(CC)c1=S	-0.24	-0.45
67	S=C(Nc1ccccc1)N1c2ccccc2Sc2ccccc21	1.4	1
68	CCCN1C(=O)CCN(C(C)=O)c2ccccc21	0.17	0.8
69	CCCn1c(SCC(=O)c2cc(C)n(C)c2C)n[nH]c1=O	/	-0.5
70	Cc1cc(=O)c2c(=O)oc3ccccc3c2o1	5.3	1.1
71	CCOC(=O)c1c(CNC(=O)c2ccc(N3CCOCC3)nc2)c(C)n(C2CC2)c1C	2.5	-1
72	O=C1CC(c2c[nH]c3ccccc23)C(=O)N1c1cccc(C(F)(F)F)c1 (stereo not drawn)	-0.33	/
73	CC(C)NC(=O)CSc1ccc2c(c1)OCCO2	/	-0.4
74	O=C(O)c1cc(NS(=O)(=O)c2ccc(Br)cc2)ccc1O	-3.3	-0.8
75	CCn1c(C)cc2cc(N)ccc21	/	-0.05
76	CCOC(=O)c1ccc(OC(=O)CCCCCN=C(N)N)cc1	-0.61	/
77	Cc1cc(C(=O)N2CCCC2)on1	-0.52	-1.4
78	O=C(Nc1cccc(-c2cn3ccsc3n2)c1)c1cccs1	-0.045	-0.75
79	N#Cc1ccc(S(=O)(=O)N2CCNCC2)cc1	/	-0.1
80	Cc1ccccc1C(=O)NCCc1ccc(S(N)(=O)=O)cc1	/	0.3

Another view of some results above.
[78] O=C(Nc1cccc(-c2cn3ccsc3n2)c1)c1cccs1
  CapD inh: -0.045	AID504770: -0.75
[79] N#Cc1ccc(S(=O)(=O)N2CCNCC2)cc1
  CapD inh: /	AID504770: -0.1
[80] Cc1ccccc1C(=O)NCCc1ccc(S(N)(=O)=O)cc1
  CapD inh: /	AID504770: 0.3

(cont.)
nr	SMILES	CapD inh	AID504770
81	CCCCC(=O)N1c2c(C)cccc2C(Nc2ccccc2C)CC1C (stereo not drawn)	-0.04	/
82	CCCCSc1ccc2c3c(onc13)-c1ccccc1C2=O	-0.16	/
83	CCCOc1ccc(C2NC(=O)NC(C)=C2C(=O)OCCSCC)cc1OC (stereo not drawn)	-0.19	/
84	COc1ccc2ccc3c(c2c1)C=CC(c1ccccc1)(c1ccccc1)O3	-0.17	/
85	CSc1noc(-c2ccc(C(C)(C)C)cc2)c1C#N	-0.57	2.2
86	c1ccc(Cn2c(NCc3ccco3)nc3ccccc32)cc1	0.11	-0.65
87	Cc1ccc(Cc2c(C)nc(NCc3ccccc3)[nH]c2=O)cc1	-0.38	-0.9
88	CCc1cc(C(=O)OC)c(NC(=O)CC2Sc3ccccc3NC2=O)s1 (stereo not drawn)	-0.35	0.35
89	Cc1ccc(N2CCN(C(=O)OCCN3CCN(Cc4cc5ccccc5o4)CC3)CC2)c(C)c1	-0.61	/
90	COc1ccccc1N=c1oc2cc(OC(C)=O)ccc2cc1C(=O)NC(C)=O	1.2	/
91	Cc1ccccc1OCc1ccc(C(=O)NC(C)C)o1	-0.06	0.6
92	O=C(Cc1noc2ccccc12)NCCN1CCN(Cc2ccccc2)CC1	-1.6	-0.6
93	COc1ccc(OC)c(/C=C2/SC(=Nc3ccccc3)N(N(C)C)C2=O)c1	-0.31	/
94	CCSC(SCC)[C@H](O)[C@@H](O)[C@H](O)CO	0.2	/
95	CCOC(=O)C1=NNC2C(=O)N(CC)C(=O)C12 (stereo not drawn)	/	-0.25
96	Cc1cnc(N2CCN(NC(=S)Nc3cccnc3)CC2)c(Cl)c1	-0.54	-0.15
97	Oc1ccccc1C1=CC(c2ccccc2)=Nc2ccccc2N1	-0.48	-0.75
98	Oc1ccc(CN2CCN(Cc3ccccc3)CC2)c2cccnc12	/	1.3
99	O=C(/C=C/Sc1ccc(Cl)cc1)c1ccccc1	-0.66	0.4
100	Cc1ccc(N2NC3(CCCCC3)NC2=S)cc1	-0.27	/

Full records, looked up by structure:
Results for Cc1ccc(N2NC3(CCCCC3)NC2=S)cc1 → CapD inh: -0.27; AID504770: /
Results for COc1ccc2ccc3c(c2c1)C=CC(c1ccccc1)(c1ccccc1)O3 → CapD inh: -0.17; AID504770: /

Going on with the list:
nr	SMILES	CapD inh	AID504770
101	O=C(NCc1cccs1)c1ccc(N2CCS(=O)(=O)CC2)cc1	-0.22	/
102	COc1cc(Br)c(CN2CCCC(COC(=O)NCc3ccc4c(c3)CCO4)C2)cc1OC (stereo not drawn)	-0.005	/
103	CNC(=O)Cn1c(=O)c2cccn2c2cccnc21	35	-0.2
104	CN(C)C(=S)SCc1ccc(Cl)cc1Cl	-0.19	-0.05
105	CC1=NN(C(=O)c2ccccc2Br)C(O)(c2cccnc2)C1 (stereo not drawn)	0.27	/
106	COc1ccc(C2CC2/C(=N/O)c2ccccn2)cc1 (stereo not drawn)	-0.24	2
107	CC(C)(/C=N/N(Cc1ccccc1)c1ccccc1)CO	/	0.55
108	COC(=O)CCS(=O)(=O)c1nc(-c2ccc(OC)c(OC)c2)cc(C(F)(F)F)n1	68	-0.45
109	CS(=O)(=O)NCCc1c[nH]c2ccc(Cl)cc12	/	-0.7
110	C=COc1ccc(N)cc1	/	-0.65
111	COc1ccc(OC)c(NC(=O)CS(=O)(=O)c2cccc3nsnc23)c1	0.43	-0.4
112	O=C(c1ccco1)N1CCC(C(=O)N2CCc3ccccc32)CC1	0.48	-0.3
113	O=S(=O)(NCCc1csc2nc(-c3ccccc3)nn12)c1ccccc1	/	1
114	Nn1c(Cc2ccccc2)nc2cc(Cl)ccc2c1=O	/	-0.9
115	O=c1cc(C(F)(F)F)[nH]c2cc(Cl)cc(Cl)c12	-0.015	/
116	O=C(Cc1ccc(F)c(F)c1)N1CCC(Cc2ccccc2)CC1	-0.33	/
117	S=C(NCCN1CCOCC1)N1CCN(c2cccc(Cl)c2)CC1	/	0.5
118	CCc1[nH]nc2c1C(c1cccc(OC(=O)N3CCOCC3)c1)C(C#N)=C(N)O2 (stereo not drawn)	-0.06	-0.35
